CDC25B CDK2 inh: primary biochemical HTRF screen for blockers of M-phase inducer phosphatase 2 binding to CDK2/cyclin A; AID 1259370, 2018; z-score (test concentration not listed); HTRF CDC25B-CDK2/CyclinA binding, anti-His/anti-Flag; hits give high values; 94,000 tested, 0.72% active;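 also: score is relative to mean and SD of negative controls; strong numbers were not always called active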
HIV TAR-Tat: TAR RNA-Tat peptide displacers, HIV-1, primary screen, biochemical, FRET, FAM/TAMRA-labeled Tat. HIV-1 TAR RNA, Tat peptide displacement FRET; hits give high values. 100,000 tested, 0.6% active. z-score (concentration not given with the values);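 also: score is relative to mean and SD of negative controls; some compounds called inactive have numbers as strong as hits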
Starred values were filed as active, the others as inactive; x = not tested or not shown.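 The calls were made as follows: active = z-score from 3 up in half or more of its runs; inactive = the rest.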

SMILES	CDC25B CDK2 inh	HIV TAR-Tat
Clc1ccccc1CN1CCC(N2CCN(c3ccccc3)CC2)CC1	-0.78	x
O=c1c2c(nc(SCc3ccccc3)n1CC1CCCCC1)-c1ccccc1CC21CCCCC1	-2.7	x
Nc1nccnc1C(=O)NNS(=O)(=O)c1ccc(Cl)cc1	-1.7	x
CCOC(=O)c1c(NC(=O)N2CCC(CN3CCCCC3)CC2)sc2c1CCCC2	x	1
COc1ccccc1NC(c1nnc(-c2ccccc2)o1)c1ccccc1F (stereo not drawn)	-0.35	-0.81
Cc1ccc2[nH]cc(NC(=O)NCc3ccc4c(c3)OCO4)c(=O)c2c1	-1.1	0.07
Cn1c(=O)c2c(c3ccccc31)OC(=O)CC2c1ccco1 (stereo not drawn)	-0.48	14*
CC(NS(=O)(=O)c1ccc(Br)cc1)c1nc(-c2ccccc2)no1 (stereo not drawn)	-0.75	0.33
C[C@]12C=CC(=O)C=C1CCC1C2C(=O)C[C@@]2(C)C1CC[C@]2(O)C(=O)CO (stereo partly drawn)	x	0.87
CC1=C(C(=O)OC(C)C)C(c2cccc(F)c2)C2=C(CCCC2=O)N1 (stereo not drawn)	-2.4	0.66
CC(=O)OCC(=O)[C@@]1(O)[C@H](C)CC2C3CCC4CC(=O)C=CC4(C)C3[C@H](O)CC21C (stereo partly drawn)	-1.3	x
CC(=O)N1N=C(c2ccncc2)OC12CCC(C(C)(C)C)CC2 (stereo not drawn)	-0.11	x
C=CCNc1nc2c(c(=O)[nH]c(=O)n2C)n1CC(O)CO (stereo not drawn)	0.3	0.32
CCn1nc(C)c(CNC(=O)NCc2ccco2)c1C	x	-1.1
Cc1oc(C(=O)O)cc1COc1ccc2c3c(c(=O)oc2c1C)CCC3	2.2	x
CC(=O)N1N=C(c2ccc(C(C)C)cc2)OC1COc1ccc(Cl)cc1 (stereo not drawn)	x	1.4
CCSc1nc(O)c(C(c2ccccc2)c2ccccc2)c(=O)[nH]1	2	4.5
CCCS(=O)(=O)c1cnc2cc(C3CC3)nn2c1N	-0.7	x
COC(=O)c1c(-c2c(Cl)cccc2Cl)noc1C(=O)NOC(=O)c1ccco1	-0.06	x
Cc1ccc(S(=O)(=O)Nc2c(-n3cnnc3)n[nH]c2C)cc1C	5.8	1.7
O=C(CCCn1c2ccccc2c2cn[nH]c(=O)c21)NCCC1=CCCCC1	-0.54	0.36
Nc1cccc(-c2nc3cc(Cl)ccc3o2)c1	-0.3	-0.17
O=C(Nc1nccs1)c1cnn(-c2ccc(Cl)cc2)c1C1CCNCC1	x	1.2
CCOc1ccc(-c2cc(N)n(S(=O)(=O)c3cc(Cl)sc3Cl)n2)cc1	-1.6	x
CCc1nn2c(=O)cc(CSc3nc4ccc(NC(C)=O)cc4s3)nc2s1	x	0.7

Overlap with the part before: 5 compounds, then new ones.
SMILES	CDC25B CDK2 inh	HIV TAR-Tat
O=C(CCCn1c2ccccc2c2cn[nH]c(=O)c21)NCCC1=CCCCC1	-0.54	0.36
Nc1cccc(-c2nc3cc(Cl)ccc3o2)c1	-0.3	-0.17
O=C(Nc1nccs1)c1cnn(-c2ccc(Cl)cc2)c1C1CCNCC1	x	1.2
CCOc1ccc(-c2cc(N)n(S(=O)(=O)c3cc(Cl)sc3Cl)n2)cc1	-1.6	x
CCc1nn2c(=O)cc(CSc3nc4ccc(NC(C)=O)cc4s3)nc2s1	x	0.7
CCOC(=O)CNc1nc2ccc(C)cc2n2nnnc12	-2.5	0.24
Cc1oc2cc(Br)c(OCC(=O)OCc3ccccc3)cc2c1C(=O)OC(C)C	-2.4	x
CN(CC(=O)O)S(=O)(=O)c1ccc2c(c1)N(CC(=O)O)C(=O)C1CCCCN21 (stereo not drawn)	x	0.49
CC(O)C(Nc1ccccc1CC(=O)OC(C)(C)C)C(=O)O (stereo not drawn)	-0.98	x
CC(C)NC(=O)C(=O)NCC(c1ccco1)S(=O)(=O)c1ccccc1 (stereo not drawn)	x	1.3
O=C(Nc1ccc(F)cc1F)C1CCN(c2nnc(N3CCCC3=O)s2)CC1	x	1.5
CCc1nn(CC(=O)N2CCC(C(N)=O)CC2)c(=O)c2cc3sccc3n12	0.62	0.72
O=C(Cn1c(=O)n(CC2CCC(C(=O)N3CCCCC3)CC2)c(=O)c2sccc21)N1CCCC1 (stereo not drawn)	x	1.3
O=C(CCc1nc2cccnc2n1Cc1cccs1)NCc1ccc2c(c1)OCO2	-1.2	-4.4
CC1CC(C)CN(C(=O)CN(C)S(=O)(=O)c2ccc3c(c2)c(=O)n(C)c(=O)n3C)C1 (stereo not drawn)	1.5	0.98
Cc1ccc(C)c(S(=O)(=O)N2CCc3cc4cccc(C)c4nc32)c1	-1.9	-0.4
CC(C)Cc1nc(SCC(=O)NC2CCCCC2)c2c(=O)n(C)c(=O)n(C)c2n1	x	0.12
COCc1nc2ccccc2n1Cc1ccc(C(C)(C)C)cc1	-0.35	x
FC(F)(F)c1cccc(N2CCNC2=S)c1	-1.2	x
Cc1nc(N2CCCCC2)cc(N2CCN(S(=O)(=O)c3cc(C(C)C)ccc3C)CC2)n1	-0.91	2.4
CCSc1nnc2c(n1)OC(c1ccc(O)c(OC)c1)Nc1ccccc1-2 (stereo not drawn)	0.22	-4.2
O=C(c1cc(=O)c2cc(Cl)ccc2o1)N(Cc1ccccc1)c1ccccn1	-2.2	2.9
c1nc2nc3c(c(N4CCN(C5CCCCC5)CC4)n2n1)CCC3	x	0.19
CC1(C)Cc2c(c(N3CCOCC3)nc3sc(C(=O)Nc4ccc(Cl)cc4)c(N)c23)CO1	1.9	1.4
Cn1c(=O)c2sccc2n2c(CCC(=O)NC3CCCC3)nnc12	-0.38	1.2
Cc1nc(SCC(=O)O)c2c(=O)n(C)c(=O)n(C)c2n1	-1.5	1.1
N#Cc1cnn(S(=O)(=O)c2ccc(Cl)cc2)c1C1CC1	-2.1	x
CCC1CN(C(=O)Nc2ccc(Br)c(C)c2)c2ccccc2O1 (stereo not drawn)	x	2
O=C1c2ccccc2N(Cc2ccc(Cl)cc2)C2=NCCN12	-0.52	-0.81
CCN(CC)C(=O)c1cccc2c1C(=O)c1ccccc1-2	0.35	x

(more compounds)
SMILES	CDC25B CDK2 inh	HIV TAR-Tat
CCOC(=O)c1ccccc1N1C(=O)CC(Sc2ccccc2C(=O)O)C1=O (stereo not drawn)	-0.86	x
Cc1nn(CCCC(=O)NCc2ccco2)c(=O)c2c1sc1ccccc12	-2.2	2.5
CCc1ccc(NC2CC(=O)N(c3ccc(C)cc3Br)C2=O)cc1 (stereo not drawn)	-1.2	0.51
COC(=O)c1ccccc1NC(=O)NC(c1ccccc1)c1nnc(-c2ccccc2)o1 (stereo not drawn)	-1.2	0.69
Cc1ccc(CSc2nc(-c3ccco3)nc3cc(=O)[nH]n23)cc1	x	-0.39
CN(C)/C=C\c1ccnc(-c2cc(/C=C\N(C)C)ccn2)c1	0.75	x
Cc1nc(N2CCN(C)CC2)ncc1C(=O)NCCCOC(C)C	x	1.6
Cc1ccc(CCC(=O)Nc2nccs2)o1	-1.1	0.66
Cc1c(C(=O)NCCN(C)C)oc2ccc(S(=O)(=O)N3CCCC3)cc12	-0.51	x
O=C(CCCn1sc2ccccc2c1=O)N1CCN(c2ccccc2F)CC1	-0.3	2.7
CC(=O)N1CCSc2ccc(S(=O)(=O)NC3CCCc4ccccc43)cc21 (stereo not drawn)	x	2.8
COc1cc(C2CC(=O)Nc3cc4c(cc32)OCCO4)cc(OC)c1OC (stereo not drawn)	-2.6	x
Fc1ccc2c(c1)CN(c1ccccc1F)CO2	-0.57	x
COc1cc(Cl)c(NC(=O)Cn2c(=O)oc3ccccc32)c(OC)c1	x	1.6
CCOc1ccc(S(=O)(=O)c2c[nH]c3ccc(OCC)cc3c2=O)cc1	-2.9	2
O=C(c1cnc2cc(-c3ccccc3)nn2c1)c1cc(Cl)ccc1O	-2.1	-0.92
Nc1nc(N)c(S(=O)(=O)c2ccccc2)c(N2CCOCC2)n1	-0.5	-0.19
CCOC(=O)c1cnc(N2CCCCC2)nc1N	-1.2	-0.43
COCCOC(=O)c1c(C)oc2ccc(OC(C)=O)cc12	0.03	-1.7
CC1=C(C(=O)OC2CCCC2)C(c2coc3ccccc3c2=O)C2=C(CCCC2=O)N1 (stereo not drawn)	-2	-1.8
CCn1cc(S(=O)(=O)c2ccccc2)c(=O)c2cc(F)c(N3CCCC(C)C3)cc21 (stereo not drawn)	x	-0.57
CCOC(=O)c1c(C)oc2c1c1c(c3ccccc32)OCN(C2CCS(=O)(=O)C2)C1 (stereo not drawn)	-2.9	0.96
CCOc1cc(C2C(C(=O)OC)=C(C)NC3=C2C(=O)CCC3)ccc1O (stereo not drawn)	-2.2	-0.31
CCOc1ccccc1-c1nc(-c2cc3ccc(C)cc3[nH]c2=O)no1	0.69	0.92
Cc1cc(NC(=O)Nc2scc(S(=O)(=O)c3ccc(Cl)cc3)c2C)on1	3	x

The results go on:
SMILES	CDC25B CDK2 inh	HIV TAR-Tat
O=C(O)COc1ccc(C2C3=C(CCCC3=O)OC3=C2C(=O)CCC3)cc1	-1.3	x
COc1ccc(NC(=O)c2sc3nc4n(c(=O)c3c2C)CCC4)c(OC)c1	x	1.1
S=c1nc(NCc2ccc3c(c2)OCO3)c2ccccc2[nH]1	-7.3	x
Cc1nc(=O)c(-c2ccccc2)c(C)n1-c1ccccc1C(=O)O	-0.67	x
COC(=O)C1=C(C)NC2=C(C(=O)CC(c3ccc(OC)cc3)C2)C1c1ccc(OC)c(OC)c1 (stereo not drawn)	-1.6	2.1
CC(C)CN(CCS(=O)(=O)N1CCNCC1)S(=O)(=O)c1ccccc1	x	0.64
CCCc1cc(=O)oc2cc(OCC)ccc12	-0.5	x
CC1(C(=O)NC2CCCC2)Cn2c(nc3ccccc32)C(=O)N1CCN1CCCC1 (stereo not drawn)	x	0.28
Cc1ccc(-c2nnn(CC(=O)C(C)(C)C)n2)cc1Cl	-1.8	x
CCCSCCCNC(=O)C1CCCN1c1nn2c(=O)cc(C)nc2s1 (stereo not drawn)	-1.6	1.1
COc1ccc(C(=O)Nc2nc3nc4c(c(=O)n3[nH]2)CCC4)cc1	-1.8	-0.35
CC1CSc2ccc(S(=O)(=O)N3CCN(c4ccccn4)CC3)cc2NC1=O (stereo not drawn)	x	0.17
Cc1[nH]c(=O)c(C#N)c(C)c1Cc1ccc(S(=O)(=O)N2CCCC2)cc1	1.2	0.84
CCOc1ccc(-c2noc(CSc3nnc(C)n3-c3ccc(OC)cc3)n2)cc1	0.05	-0.8
CCOC(=O)c1cn(C(C)CO)c2c(F)c(F)c(F)cc2c1=O (stereo not drawn)	0.22	x
Nc1ncnc2c1[nH]c(=S)n2CCOc1ccccc1	-1.9	x
Cc1cc2c(cc1NS(C)(=O)=O)n(C)c(=O)c(=O)n2C	x	-0.85
CCOc1cc(C2/C(=C(\O)c3ccc(Cl)cc3)C(=O)C(=O)N2c2nccs2)ccc1O (stereo not drawn)	1.7	-3.2
O=C(c1cccc(S(=O)(=O)N2CCCC2)c1)c1cccc(S(=O)(=O)N2CCCC2)c1	-0.61	0.13
Cc1cccc(NC(=O)C(NS(=O)(=O)c2ccc3nc(C)sc3c2)C(C)C)n1 (stereo not drawn)	-1.3	x
CC(C)CC(NS(=O)(=O)c1ccc2c(c1)oc(=O)n2C)C(=O)NC1CCCCC1C (stereo not drawn)	0.12	x
O=C(Cc1csc2ccccc12)NCc1cccs1	-0.53	0.01
O=C(NCCCN1CCCC1=O)C1CCCN(c2nn3c(=O)c4c(nc3s2)CCCC4)C1 (stereo not drawn)	x	0.79
CCOC(=O)C1CCCN(C(=O)c2cc(S(=O)(=O)N3CCOCC3)cn2C)C1 (stereo not drawn)	x	0.35
Nc1nc(-c2ccc3c(c2)CCCC3)cc(C(F)(F)F)n1	-1.2	x

One compound at a time (already shown). Values in the order: CDC25B CDK2 inh, HIV TAR-Tat
CCOC(=O)c1cn(C(C)CO)c2c(F)c(F)c(F)cc2c1=O (stereo not drawn) is listed as 0.22, x
CC1CSc2ccc(S(=O)(=O)N3CCN(c4ccccn4)CC3)cc2NC1=O (stereo not drawn) is listed as x, 0.17
Cc1cc2c(cc1NS(C)(=O)=O)n(C)c(=O)c(=O)n2C is listed as x, -0.85
CCCSCCCNC(=O)C1CCCN1c1nn2c(=O)cc(C)nc2s1 (stereo not drawn) is listed as -1.6, 1.1
COc1ccc(C(=O)Nc2nc3nc4c(c(=O)n3[nH]2)CCC4)cc1 is listed as -1.8, -0.35

The list goes on.
SMILES	CDC25B CDK2 inh	HIV TAR-Tat
COc1ccc(CNc2nc3c(C)cc(C)cc3s2)cc1OC	0.32	0.44
C=CCn1c(COc2cccc(OC)c2)nc2ccccc21	0.67	0.42
COC(=O)C1C(=O)C2=C(CC1C)NC(C)=C(C(=O)OCCOc1ccccc1)C2c1ccc(O)cc1 (stereo not drawn)	1.1	0.32
Fc1ccc(C(Nc2ccc3c(c2)OCO3)c2nnc(-c3ccccc3)o2)cc1 (stereo not drawn)	x	1
COc1ccc(S(=O)(=O)N(CCS(=O)(=O)N2CCNCC2)Cc2cccc(OC)c2)cc1	x	1.8
CCCCCCSC1=C(C#N)C(c2ccccc2Cl)CC(=O)N1 (stereo not drawn)	-1.6	1
CCn1cc(S(=O)(=O)c2ccccc2)c(=O)c2cc(Cl)ccc21	-1.9	1.2

Screens from PubChem.
